Screens from PubChem BioAssay.
gsp ag: gsp mutant agonism; gsp mutant cells, cAMP HTRF, 30 min; control for the full effect not named in the record; Potency, µM (titrated, usually from 76.9 µM), for the others: at the top dose activation (cAMP increase), actives largely listed as activators; actives 0.13% (n = 340,000); active = well fitted activation curve with a large enough effect; inconclusive = small, poorly fitted or top-dose-only effect, or another doubt; inactive = no such curve, though single readings can be large or run the other way; cell line not stated here;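 note: phosphodiesterase inhibitor Ro 20-1724 added with compounds to block cAMP breakdown; potency is the fitted concentration of half-maximal effect; nearly all actives have a fitted effect of over 60% in size; about a fifth of the inactives were tested at one dose only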
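Cells in DMEM/10% FBS with G418 were pretreated with compounds in DMSO plus […] (300 uM stock) for 30 min at 37C. cAMP was measured by HTRF (cAMP-d2 plus anti-cAMP antibody-K) after 30 min at room temperature.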
gsp antagonist: antagonizes gsp, the McCune-Albright syndrome mutation. gsp-mutant cells, cAMP HTRF, 30 min; control for the full effect not named in the record. Potency, µM (doses to about 76.9 µM), for the others: at the top dose activity change, negative = inhibition, usual class: inhibitors. actives 0.4% (n = 340,000). AID 624288; active = falling curve of any shape with a large fitted effect; inconclusive = falling curve, mostly with a smaller effect; inactive = flat or rising curve; cell line not stated here;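 note: intracellular cAMP measured with PDE inhibitor Ro 20-1724 present during compound exposure; potency is the fitted concentration of half-maximal effect; % is set by controls: 0 for no effect and ±100 for the full control effect; nearly all actives have a fitted effect of over 65% in size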
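Measurement of cellular cAMP by homogeneous time-resolved fluorescence following a 30 min compound exposure at 37C. The PDE inhibitor […] was present throughout; the assay buffer was DPBS with 0.05% BSA and 0.005% Tween 20.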
TRPML1 blocker: human mucolipin-1 channel inhibition; Q9GZU1; TRPML1-inducible cells, Ca2+ dye fluorescence, FDSS; hits give low values; inhibition of EC80 agonist-evoked calcium signal; activity change, negative = inhibition, % (test concentration not listed); actives 0.02% (n = 390,000); in the data active means activity change below about -50%; inconclusive means about -30% to -50%; inactive means above about -30%;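 note: stimulus is agonist 54-4 at its EC80 concentration; % is set by controls: 0 for no effect and ±100 for the full control effect; compound concentration not given in the record; the text of the record puts the active cut at -80%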
Target sequence (Q9GZU1 whole entry, looked up): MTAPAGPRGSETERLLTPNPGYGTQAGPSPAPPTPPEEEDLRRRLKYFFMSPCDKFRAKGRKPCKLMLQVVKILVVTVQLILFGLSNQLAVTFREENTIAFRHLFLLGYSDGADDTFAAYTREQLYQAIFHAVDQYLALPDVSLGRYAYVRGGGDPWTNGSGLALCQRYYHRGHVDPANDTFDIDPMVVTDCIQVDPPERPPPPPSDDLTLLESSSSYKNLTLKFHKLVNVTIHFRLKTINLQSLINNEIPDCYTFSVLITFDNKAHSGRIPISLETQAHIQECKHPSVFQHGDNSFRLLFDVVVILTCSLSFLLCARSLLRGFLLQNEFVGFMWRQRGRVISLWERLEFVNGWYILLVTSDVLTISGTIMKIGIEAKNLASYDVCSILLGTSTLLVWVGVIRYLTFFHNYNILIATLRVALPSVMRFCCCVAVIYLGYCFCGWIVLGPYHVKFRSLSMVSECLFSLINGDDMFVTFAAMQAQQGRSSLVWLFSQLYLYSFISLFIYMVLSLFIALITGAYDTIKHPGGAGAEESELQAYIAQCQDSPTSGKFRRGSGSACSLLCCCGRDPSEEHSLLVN
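Calcium fluorescence in TRPML1-DL cells induced overnight with Tet: a 110 s read after compound pin addition, then a 110 s antagonist read after challenge with 54-4 at 4 uM final (EC80).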
Menin MLL FP FL: menin-MLL binding inhibition, fluorescein peptide; Fluorescence polarization, fluorescein-MLL peptide displacement from menin; FP activity change, % at 61.4 µM; 290,000 tested, under 10 active; inconclusive = falling polarisation curve, or a change in total fluorescence; inactive = total fluorescence flat and polarisation flat or rising; no compound was filed as active; the % refers to the polarisation; negative = inhibition;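 note: % of control where 0% means no effect; inhibitors lower the polarisation; unlabelled MLL peptide was the positive control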
ClpP mod: qHTS Assay for Activators of ClpP; actives 1.9% (n = 340,000); ATP-dependent Clp protease proteolytic subunit (Bacillus subtilis (strain 168)), P80244; AID 651965, 2013; Potency, µM (top dose mostly 57.5 µM), for the others: at the top dose activity change, negative = active; purified B. subtilis ClpP, FRET peptide cleavage, 20 min; active = well fitted falling curve with a large enough effect; inconclusive = small, poorly fitted or top-dose-only effect; inactive = no such curve, though single readings can be large or run the other way; note: potency is the fitted concentration of half-maximal effect; the source files actives as falling curves though it sought activators and does not explain the sign; nearly all actives have a fitted effect of over 65% in size; many hits overshoot -100%
Target sequence (P80244 whole entry, looked up): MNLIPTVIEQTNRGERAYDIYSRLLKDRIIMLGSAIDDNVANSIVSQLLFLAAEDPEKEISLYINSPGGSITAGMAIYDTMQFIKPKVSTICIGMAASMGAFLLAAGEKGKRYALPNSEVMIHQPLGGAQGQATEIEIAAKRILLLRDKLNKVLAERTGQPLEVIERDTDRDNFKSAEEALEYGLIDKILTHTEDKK
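Buffer: 100 mM Tris/HCl pH8, 100 mM KCl, 0.05% low protease BSA, 2.5% glycerol, 0.01% Tween-20. ClpP 10 microg/mL final; 20 min RT; delta FRET normalized to ADEP and DMSO controls.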
TRPML1 ag: activates the human TRPML1 channel | activation, % (concentration not given with the values) | actives 0.12% (n = 410,000) | TRPML1-expressing cells, Ca2+ dye fluorescence, FDSS; host cell line not named in the record; reference of the full effect not given here | Q9GZU1; in the data active = activation above about 50%; inconclusive = about 30% to 50%; inactive = below about 30%; note: 0% is about no effect; the text of the record puts the active cut at 80%
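Kinetic FDSS Ca2+ read in Tet-induced TRPML1-DL cells (ABD Ca8 dye plus quencher, 45-90 min RT loading): baseline, then compound, then 110 s agonist window; EC80 agonist 54-4 at 4uM final added afterwards for a 110 s antagonist window.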
* hit, by the source's call; u = inconclusive; x = no result given; & = joins results of further samples; [ ] = remark or other dose. An unsorted share of the library. About 2.1% of those tested had a hit in this group.

# | canonical_smiles | gsp ag | gsp antagonist | TRPML1 blocker | Menin MLL FP FL | ClpP mod | TRPML1 ag
1 | N=c1c2c(-c3ccccc3)c(-c3ccccc3)n(Cc3ccco3)c2ncn1CCCN1CCOCC1 | -7.6%[15.4 µM] | 4.3% | 11.2 | 3.0 | x | 0.1
2 | O=C(COC(=O)CN1C(=O)NC2(CCCC2)C1=O)Nc1ccccc1C(F)(F)F | 34.3%[15.4 µM] | 6.9% | -3.6 | x | x | 0.9
3 | Cc1ccc(CCNC(=O)c2ccc(CS(=O)(=O)c3ccc(Br)cc3)o2)cc1 | x | x | 8.0 | x | -0.9% | 1.6
4 | O=C1CCC(=O)N1CNc1ccccn1 | -4.8% | 0.1% | 2.1 | 2.4 | -16.3% | 0.6
5 | Oc1ccc(-c2csc(Nc3ccc4c(c3)OCO4)n2)c(O)c1 | -62.7%[inhibitor] | -31.0% | -6.4 | x | -2.1% | 0.1
6 | NNC(=O)COc1ccc(-c2nccc(-c3ccc(F)cc3)n2)cc1 | 20.5% | -6.6% | -19.8 | -7.4 | -15.8% | 0.9
7 | O=C(COC(=O)C1CC(=O)N(c2ccc3c(c2)OCCO3)C1)NC1CCCc2ccccc21 (configuration not stated) | 10.3% | -5.9% | 3.8 | 0.0 | -0.5% | -0.5
8 | CC(Oc1ccc(Cl)cc1Cl)C(=O)NCCCn1ccnc1 (configuration not stated) | -53.3%[inhibitor] | -4.6% | 4.4 | 2.5 | 0.2% | -0.5
9 | CCOC(=O)c1c(CN2CCOCC2)n(-c2ccccc2)c2ccc(O)cc12 | 7.1% | 2.6% | -3.7 | 0.7 | -23.3% | 1.9
10 | Cc1cn(CC(=O)NCCN2CCOCC2)c(=O)[nH]c1=O | x | 3.5% | 26.5 | x | -0.1% | 0.0
11 | COc1ccccc1NC(=O)CCCCCN1C(=O)c2cccc3cccc(c23)C1=O | 4.5%[15.4 µM] | -9.3% | -10.0 | -0.5 | 23.3% | -0.3
12 | Cc1ccc2nsnc2c1N | -7.4%[15.4 µM] | 12.1% | -7.3 | u | 1.6% | 0.9
13 | COc1ccccc1OCc1cc(C(=O)NCc2ccc(N3CCCC3=O)cc2)no1 | -10.3% | 4.9% | -8.5 | 4.3 | -3.4% | 1.2
14 | CC(=O)Nc1cc(NC(C)=O)cc(C(=O)OCC(=O)c2ccc3c(c2)OCO3)c1 | u | -12.8% | 9.3 | x | -3.1% | -0.4
15 | COc1ccc(NC(=O)c2ccccc2-c2ccc(C(F)(F)F)cc2)cc1S(=O)(=O)N1CCOCC1 | 0.8%[15.4 µM] | -0.8% | 80.1 | 4.0 | -7.9% | 0.6
16 | O=C(NCCCN1CCCC1=O)c1ccc(NS(=O)(=O)c2cccc([N+](=O)[O-])c2)cc1 | 7.6%[15.4 µM] | 6.3% | 24.4 | x | x | 1.1
17 | CCCCCCCC(=O)Nc1ccc(C(=O)N/N=C/c2cccc([N+](=O)[O-])c2)cc1 | -0.7%[15.4 µM] | 12.2% | 1.6 | 0.0 | 28.2µM* | 0.6
18 | C/[N+]([O-])=C\c1coc2ccccc2c1=O | u | 7.5% | 49.9 | -0.9 | 1.2% | -0.5
19 | c1cncc(-c2nc(-c3cccs3)cs2)c1 | 19.6% | 8.1% | 19.8 | 2.0 | -5.6% | -0.1
20 | COc1cccc(OCCn2cc(C(C)=O)c3ccccc32)c1 | 0.8%[15.4 µM] | -24.8% | 15.4 | -0.7 | 0.2% | -0.2
21 | COc1ccc(CN(C)Cc2cc(=O)oc3cc(C)c(C(C)C)cc23)cc1OC | u | 24.8% | 21.6 | 0.8 | x | -0.2
22 | Cc1nc(-c2ccncc2)nc(NCCNc2ncccc2C(F)(F)F)c1Cl | -24.4% | -13.0% | -11.3 | 1.5 | 9.2% | -1.0
23 | CN(C(=O)CCN1C(=O)/C(=C/c2ccccc2F)SC1=S)C1CCS(=O)(=O)C1 (configuration not stated) | 2.1% | u | -7.4 | x | x | 0.0
24 | CCN(CC)/C(=N/O)NC(=O)NS(=O)(=O)c1ccc(C)cc1 | -44.5%[inhibitor] | 3.5% | -21.8 | 2.0 | -8.4% | -0.6
25 | CN1C(=O)C2CCCCN2c2ccc(C(=O)NCc3ccccc3Br)cc21 (configuration not stated) | x | x | -7.9 | x | -9.4% | 0.3
26 | COCCCN1C(=O)C(CC(=O)NCc2cccs2)CC(C(=O)N2CCOCC2)=C1C (configuration not stated) | u | x | 20.7 | x | -0.8% | -0.4
27 | CCOC(=O)c1cnc(SCC)[nH]c1=O | -49.9%[inhibitor] | -2.5% | 0.5 | 0.5&4.4 | -2.2% | 0.9
28 | c1ccc(-c2ccc(OCCCNC3CCCC3)cc2)cc1 | 16.4%[15.4 µM] | 16.7% | 20.9 | -0.1 | x | 0.5
29 | O=C(CN1CCC(C(=O)c2ccc3c(c2)OCCO3)CC1)Nc1ccccc1C(F)(F)F | -33.6% | -12.0% | -8.8 | -2.3 | x | 0.0
30 | CNS(=O)(=O)c1cccc(C(=O)NNC(=O)CN(C)S(=O)(=O)c2ccc(Cl)cc2)c1 | -3.4%[15.4 µM] | 7.6% | 4.5 | x | 1.7% | -0.6
31 | COc1ccc(N(CC(=O)N2CCN(c3ccccc3)CC2)S(=O)(=O)c2ccccc2)cc1 | -70.5%[inhibitor] | x | 5.0 | x | 0.3% | -1.0
32 | COc1ccc(C=C(C#N)C#N)c(CSc2ccccn2)c1 | -34.5%[inhibitor] | -5.9% | -7.5 | 2.9 | -2.4% | -1.3
33 | COc1cc(/C=C/C(=O)N2CCCC2)cc(OC)c1OC | u | 3.1% | 2.7 | 1.6 | -28.6% | 0.6
34 | CC(C)Oc1ccc(C(=O)Nc2cc(=O)n(C)c(=O)n2C)cc1 | 10.9% | -1.0% | -19.8 | 3.7 | -2.0% | -0.5
35 | CCOc1ccc2c(c1)c(=O)c(C(=O)c1ccc3c(c1)OCO3)cn2Cc1ccc(F)cc1 | x | x | 8.1 | x | -1.4% | 2.5
36 | CCOC(=O)N1CCN(c2ccncc2S(=O)(=O)N2CCCCC2)CC1 | 2.8%[15.4 µM] | 0.8% | 2.8 | x | 0.4% | 1.8
37 | Cc1nc2ccccc2cc1C(=O)N/N=C/c1ccccc1[N+](=O)[O-] | 11.0%[15.4 µM] | -6.1% | 9.3 | 0.6 | -1.2% | -0.8
38 | CCOc1ccc(Oc2ccccc2NC(=O)CCNC(C)=O)cc1 | -7.8%[15.4 µM] | 8.3% | -11.0 | 0.5 | x | 0.2
39 | CC(=O)c1ccccc1NC(=O)COC(=O)CCC1CCCC1 | -2.4% | 3.1% | 5.5 | x | 1.0% | 2.1
40 | O=C(CSc1nc2ccccc2s1)NC1CCCc2ccccc21 (configuration not stated) | -17.1% | -3.6% | -10.3 | 2.1 | -1.6% | 4.3

Shown with one line to a screen: entries from further up.
(32) COc1ccc(C=C(C#N)C#N)c(CSc2ccccn2)c1
(33) COc1cc(/C=C/C(=O)N2CCCC2)cc(OC)c1OC
(34) CC(C)Oc1ccc(C(=O)Nc2cc(=O)n(C)c(=O)n2C)cc1
(35) CCOc1ccc2c(c1)c(=O)c(C(=O)c1ccc3c(c1)OCO3)cn2Cc1ccc(F)cc1
(36) CCOC(=O)N1CCN(c2ccncc2S(=O)(=O)N2CCCCC2)CC1
(37) Cc1nc2ccccc2cc1C(=O)N/N=C/c1ccccc1[N+](=O)[O-]
(38) CCOc1ccc(Oc2ccccc2NC(=O)CCNC(C)=O)cc1
(39) CC(=O)c1ccccc1NC(=O)COC(=O)CCC1CCCC1

| Compound | 32 | 33 | 34 | 35 | 36 | 37 | 38 | 39 |
| --- | --- | --- | --- | --- | --- | --- | --- | --- |
| gsp ag | -34.5%[inhibitor] | u | 10.9% | x | 2.8%[15.4 µM] | 11.0%[15.4 µM] | -7.8%[15.4 µM] | -2.4% |
| gsp antagonist | -5.9% | 3.1% | -1.0% | x | 0.8% | -6.1% | 8.3% | 3.1% |
| TRPML1 blocker | -7.5 | 2.7 | -19.8 | 8.1 | 2.8 | 9.3 | -11.0 | 5.5 |
| Menin MLL FP FL | 2.9 | 1.6 | 3.7 | x | x | 0.6 | 0.5 | x |
| ClpP mod | -2.4% | -28.6% | -2.0% | -1.4% | 0.4% | -1.2% | x | 1.0% |
| TRPML1 ag | -1.3 | 0.6 | -0.5 | 2.5 | 1.8 | -0.8 | 0.2 | 2.1 |

(40) O=C(CSc1nc2ccccc2s1)NC1CCCc2ccccc21 (configuration not stated)

| Compound | 40 |
| --- | --- |
| gsp ag | -17.1% |
| gsp antagonist | -3.6% |
| TRPML1 blocker | -10.3 |
| Menin MLL FP FL | 2.1 |
| ClpP mod | -1.6% |
| TRPML1 ag | 4.3 |

Following part.
# | canonical_smiles | gsp ag | gsp antagonist | TRPML1 blocker | Menin MLL FP FL | ClpP mod | TRPML1 ag
41 | COc1ccc(/C=C2\CN(Cc3ccccc3)C/C(=C\c3ccc(OC)cc3)C2=O)cc1 | -5.8% | -29.7% | 12.3 | -0.4 | -0.9% | 0.6
42 | OC(COC(c1ccccc1)c1ccccc1)CN1CCCCC1 (configuration not stated) | -16.4% | 9.7% | 4.9 | 4.5 | -3.5% | 1.8
43 | CC1CCCCN1CC(O)COCc1ccccc1 (configuration not stated) | -5.1%[15.4 µM] | 3.9% | -7.3 | 7.3 | -2.7% | -0.2
44 | CN(C)C(=O)c1cn(-c2ccccc2)nc1-c1cccc([N+](=O)[O-])c1 | 0.2% | -3.0% | -3.0 | -4.3 | x | 1.7
45 | Cc1ccc(OC(=O)CCC(=O)Nc2ccc(S(=O)(=O)Nc3cc(C)on3)cc2)cc1 | -0.5% | 0.7% | 11.5 | 1.7 | 0.1% | 0.9
46 | Cn1ccnc1C(O)c1ccco1 (configuration not stated) | u | 4.2% | -0.1 | -18.1 | -1.6% | 0.4
47 | Cc1nn(-c2ccccc2)c(C)c1/C=C/C(=O)OCC(=O)Nc1ccc(S(N)(=O)=O)cc1 | -27.6% | 9.1% | 26.8 | x | 0.3% | 0.5
48 | S=C(Nc1cccnc1)Nc1ccccc1Br | 1.1%[15.4 µM] | 4.2% | 4.6 | 0.4 | -5.7% | 0.3
49 | Cc1ccc(OCC(=O)Nc2cccc(S(=O)(=O)N3CCCCCC3)c2)cc1C | -5.8% | -16.8% | 28.9 | x | -3.2% | 1.7
50 | Cc1ccc(S(=O)(=O)Nc2nc3ccccc3nc2NCc2ccc3c(c2)OCO3)cc1C | -5.4%[15.4 µM] | 11.0% | 4.3 | 1.3 | -11.8% | 0.2
